# From PubChem
# BasE inh: blocks the Acinetobacter baumannii siderophore enzyme BasE; AID 485350; inhibition, % (concentration not given with the values); purified BasE, fluorescence polarization binding displacement; hit rate 0.1% among 84,000;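 active = both replicates above 25% with normal brightness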;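 note: 0% = negative plate control signal and 100% = positive plate control signal; stock transfer was 100 nL into about 30 µL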
# LANA-nucl inh: LANA-nucleosome interaction inhibition | AID 720717 | FITC-LANA1-23 / chicken nucleosome fluorescence polarization; active compounds read low | z-score (no concentration beside the values) | hit rate 0.3% among 51,000;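 active = both repeat wells score below -2 in polarization z-score versus plate sample wells, excluding overly bright wells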;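 note: 100 nL library stock added to about 30 µL; numbers are from one replicate; some results filed as inactive read as strong as hits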
#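 Material: Purified chicken nucleosomes with FITC-labelled LANA N-terminal peptide (1-23) | Reagent: 50 nM FITC-LANA1-23 probe | Medium: TEN-BT buffer, pH 7.5 | Times: 10–45 min incubation at room temperature | Detection: Fluorescence polarization | Replication: Duplicates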
# Starred values were filed as active, the others as inactive; / = not tested or not shown; & = joins results of further samples. A portion of the library. The share of hits here may be higher or lower than overall.
SMILES,BasE inh,LANA-nucl inh
NC(=O)c1ccc([N+](=O)[O-])cc1Cl,0.4,-0.12&1.1
Cc1ccsc1/C=C/C1=NCCCN1C,-1.8&-3.7,0.49&-0.23&-0.41
CC[C@]12CCCN3CCc4c(n(c5ccccc45)[C@@](O)(C(=O)OC)C1)[C@@H]32,-2.0,-0.65
NC(=O)NC(=O)Cc1ccccc1,-1.4,-0.16&0.2
CCC(Cc1c(I)cc(I)c(N)c1I)C(=O)O (centres undefined),1.2&-2.4,0.85&-0.22&-0.56
COc1cc(C(=O)NCCCCCC(=O)O)cc(OC)c1OC,/,-0.54
COc1cc(C)nc(-n2nc(C)cc2OC)n1,-2.8,2.3&0.23
CC1CCc2c(N3CCC(O)CC3)c(F)cc3c(=O)c(C(=O)O)cn1c23 (centres undefined),/,-0.4
O=C(c1ccccc1)c1ccc2n1CCC2C(=O)O (centres undefined),0.4&-2.4,-0.13&0.76&-0.75&-0.22
Nc1ncnc(Nc2ccccc2)n1,4.9,/
Cc1ccc(C(=O)C(C)CN2CCCCC2)cc1 (centres undefined),-0.1,-0.59
CCOC(=O)Nc1ccc2c(c1)N(C(=O)CCN1CCOCC1)c1ccccc1S2,2.1,0.19
CC(C)(CO)[C@@H](O)C(=O)NCCCO,-0.4,-1.3&0.072
C#C[C@]1(O)CC[C@H]2[C@@H]3CCC4=CC(=O)CC[C@@H]4[C@H]3CC[C@@]21CC,-1.5,0.59&0.35&-0.47
COC(=O)Nc1nc2ccc(S(=O)c3ccccc3)cc2[nH]1 (centres undefined),1.6,-0.71&0.42&0.11
O=C(OC1C[C@@H]2CC3C[C@H](C1)N2CC3=O)c1c[nH]c2ccccc12 (some centres undefined),/,0.05
CCCc1cc(C(N)=S)ccn1,3.0,-0.18&-0.16
CC(C)(C(=O)c1cccnc1)c1cccnc1,0.9,-0.75&0.36
O=C1CCc2cc(OCCCCc3nnnn3C3CCCCC3)ccc2N1,1.1,0.47&-0.28
CN(CCOc1ccc(NS(C)(=O)=O)cc1)CCc1ccc(NS(C)(=O)=O)cc1,/,0.0005&-0.53
OCCOCCN1CCN(C(c2ccccc2)c2ccc(Cl)cc2)CC1 (centres undefined),-4.6,0.96
CC(=O)O[C@@]12CO[C@@H]1C[C@H](O)[C@@]1(C)C(=O)[C@H](O)C3=C(C)[C@@H](OC(=O)[C@H](O)[C@@H](NC(=O)OC(C)(C)C)c4ccccc4)C[C@@](O)([C@@H](OC(=O)c4ccccc4)[C@H]21)C3(C)C,/,0.47
CCN(CC)CCOC(=O)C(c1ccccc1)c1ccccc1,-0.8&2.2,-0.66&-0.62&0.24
CN(C)C(=N)N=C(N)N,-1.7&-1.3,-0.58&-0.091&2.9&0.85
OCC(O)CN1CCN(c2ccccc2)CC1 (centres undefined),-0.1&1.4,-0.17&0.82
CN=C(NC#N)Nc1ccc(C2=NNC(=O)CC2C)cc1 (centres undefined),1.9,-0.24&-1.3
CN(C)CCOC(=O)C(c1ccccc1)C1(O)CCCC1 (centres undefined),-4.0&-4.5,-0.28&-0.24&0.16
CCCN(CCC)C(=O)C(CCC(=O)O)NC(=O)c1ccccc1 (centres undefined),-0.2&2.2,-0.44&0.25&-0.059
CC(=O)O[C@@]12CO[C@@H]1C[C@H](O)[C@@]1(C)C(=O)[C@H](O)C3=C(C)[C@@H](OC(=O)[C@H](O)[C@@H](NC(=O)OC(C)(C)C)c4ccccc4)C[C@](O)([C@@H](OC(=O)c4ccccc4)[C@H]21)C3(C)C,/,1.3
CN1CCC(=C2c3ccccc3CC(=O)c3sccc32)CC1,-0.5&-3.8,-0.41&-0.0085&0.29&-0.22&0.63
CN1CCN(c2c(F)cc3c(=O)c(C(=O)O)cn4c3c2SCC4)CC1,/,0.07&0.078
CCN1CC(CCN2CCOCC2)C(c2ccccc2)(c2ccccc2)C1=O (centres undefined),/,0.15
Cc1oncc1C(=O)Nc1ccc(C(F)(F)F)cc1,-1.8&-3.0,0.34&0.39&-0.75
NC(=O)c1ccc(-c2nc(-c3ccc4c(c3)OCO4)c(-c3ccccn3)[nH]2)cc1,0.4,0.38
CN1CCN(CCCN2c3ccccc3Sc3ccc(S(=O)(=O)N(C)C)cc32)CC1,-4.3,-0.35
O=C(NCCN1CCOCC1)c1ccc(Cl)cc1,/,0.96
O=C(O)c1cc(-c2ccccc2)no1,0.9,0.44
O=C(O)CCCCCCCC(=O)O,-0.2,-0.31&-0.81
CN(C)CCC[C@@]1(c2ccc(F)cc2)OCc2cc(C#N)ccc21,/,0.22&-0.082
C=C1c2cccc(O)c2C(O)=C2C(=O)C3(O)C(O)=C(C(N)=O)C(=O)C(N(C)C)C3C(O)C12 (centres undefined),-5.9,1.5

# Rewritten tab-delimited: part of the list above.
SMILES	BasE inh	LANA-nucl inh
CCCc1cc(C(N)=S)ccn1	3.0	-0.18&-0.16
CC(C)(C(=O)c1cccnc1)c1cccnc1	0.9	-0.75&0.36
O=C1CCc2cc(OCCCCc3nnnn3C3CCCCC3)ccc2N1	1.1	0.47&-0.28
CN(CCOc1ccc(NS(C)(=O)=O)cc1)CCc1ccc(NS(C)(=O)=O)cc1	/	0.0005&-0.53
OCCOCCN1CCN(C(c2ccccc2)c2ccc(Cl)cc2)CC1 (centres undefined)	-4.6	0.96
CC(=O)O[C@@]12CO[C@@H]1C[C@H](O)[C@@]1(C)C(=O)[C@H](O)C3=C(C)[C@@H](OC(=O)[C@H](O)[C@@H](NC(=O)OC(C)(C)C)c4ccccc4)C[C@@](O)([C@@H](OC(=O)c4ccccc4)[C@H]21)C3(C)C	/	0.47
CCN(CC)CCOC(=O)C(c1ccccc1)c1ccccc1	-0.8&2.2	-0.66&-0.62&0.24
CN(C)C(=N)N=C(N)N	-1.7&-1.3	-0.58&-0.091&2.9&0.85
OCC(O)CN1CCN(c2ccccc2)CC1 (centres undefined)	-0.1&1.4	-0.17&0.82
CN=C(NC#N)Nc1ccc(C2=NNC(=O)CC2C)cc1 (centres undefined)	1.9	-0.24&-1.3
CN(C)CCOC(=O)C(c1ccccc1)C1(O)CCCC1 (centres undefined)	-4.0&-4.5	-0.28&-0.24&0.16
CCCN(CCC)C(=O)C(CCC(=O)O)NC(=O)c1ccccc1 (centres undefined)	-0.2&2.2	-0.44&0.25&-0.059
CC(=O)O[C@@]12CO[C@@H]1C[C@H](O)[C@@]1(C)C(=O)[C@H](O)C3=C(C)[C@@H](OC(=O)[C@H](O)[C@@H](NC(=O)OC(C)(C)C)c4ccccc4)C[C@](O)([C@@H](OC(=O)c4ccccc4)[C@H]21)C3(C)C	/	1.3
CN1CCC(=C2c3ccccc3CC(=O)c3sccc32)CC1	-0.5&-3.8	-0.41&-0.0085&0.29&-0.22&0.63
CN1CCN(c2c(F)cc3c(=O)c(C(=O)O)cn4c3c2SCC4)CC1	/	0.07&0.078
CCN1CC(CCN2CCOCC2)C(c2ccccc2)(c2ccccc2)C1=O (centres undefined)	/	0.15
Cc1oncc1C(=O)Nc1ccc(C(F)(F)F)cc1	-1.8&-3.0	0.34&0.39&-0.75
NC(=O)c1ccc(-c2nc(-c3ccc4c(c3)OCO4)c(-c3ccccn3)[nH]2)cc1	0.4	0.38
CN1CCN(CCCN2c3ccccc3Sc3ccc(S(=O)(=O)N(C)C)cc32)CC1	-4.3	-0.35
O=C(NCCN1CCOCC1)c1ccc(Cl)cc1	/	0.96
O=C(O)c1cc(-c2ccccc2)no1	0.9	0.44

# (list continues)
SMILES,BasE inh,LANA-nucl inh
CCCCOC(=O)c1ccc(N)cc1,-0.2&-2.7,-0.17&0.041&-0.14
Cc1nc2c([nH]1)c(=O)n(C)c(=O)n2Cc1ccco1,/,1.3
C[C@@H]1C[C@H]2[C@@H]3C[C@H](F)C4=CC(=O)C(Cl)=C[C@]4(C)[C@@]3(F)[C@@H](O)C[C@]2(C)[C@@]1(O)C(=O)CO,/,-0.24
C#C[C@]1(OC(C)=O)CCC2C3CCC4=C/C(=N/O)CCC4C3CC[C@@]21CC (some centres undefined),/,0.42

# Taken from above:
# CCCCOC(=O)c1ccc(N)cc1 in BasE inh is listed with -0.2&-2.7
# C#C[C@]1(OC(C)=O)CCC2C3CCC4=C/C(=N/O)CCC4C3CC[C@@]21CC (some centres undefined) in LANA-nucl inh is listed with 0.42
